Assay outcomes as filed in PubChem BioAssay.
CtBP-E1A inh = qHTS Assay for Inhibitors of the CtBP/E1A Interaction. AID 651724, 2012. hit rate 0.49% among 340,000. activity change, % (no concentration beside the values). AlphaScreen GST-E1A/His-CtBP binding, 1536-well; stronger effect = lower value; control for the full effect not named in the record. CtBP / adenovirus E1A interaction (AlphaScreen); in the data active means activity change below about -65%; inconclusive means about -30% to -65%; inactive means above about -30%; note: % is set by controls: 0 for no effect and ±100 for the full control effect; compound concentration not given in the record
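In 5 uL wells, 23 nL compound meets equimolar GST-E1A and His-CtBP (5X stock 125 nM each) for 2 h, 37 °C. Beads (5X, 50 ug/mL) then 1 h, 37 °C, dark.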
TRPV1 potentiator = HTS Assay for Compounds that Act as Potentiators of the Vanilloid Receptor 1; Transient receptor potential cation channel subfamily V member 1 (Homo sapiens), Q8NER1; TRPV1-expressing cells, Fluo-8 calcium influx, capsaicin EC20 potentiation; host cell line not named in the record; control for the full effect not named in the record; potentiation, % at 8.33 µM; hit rate 0.02% among 320,000; active means potentiation above 80%; inconclusive means 30% to 80%; inactive means below 30%; note: 0% is about no effect
Target sequence (Q8NER1 whole entry, looked up): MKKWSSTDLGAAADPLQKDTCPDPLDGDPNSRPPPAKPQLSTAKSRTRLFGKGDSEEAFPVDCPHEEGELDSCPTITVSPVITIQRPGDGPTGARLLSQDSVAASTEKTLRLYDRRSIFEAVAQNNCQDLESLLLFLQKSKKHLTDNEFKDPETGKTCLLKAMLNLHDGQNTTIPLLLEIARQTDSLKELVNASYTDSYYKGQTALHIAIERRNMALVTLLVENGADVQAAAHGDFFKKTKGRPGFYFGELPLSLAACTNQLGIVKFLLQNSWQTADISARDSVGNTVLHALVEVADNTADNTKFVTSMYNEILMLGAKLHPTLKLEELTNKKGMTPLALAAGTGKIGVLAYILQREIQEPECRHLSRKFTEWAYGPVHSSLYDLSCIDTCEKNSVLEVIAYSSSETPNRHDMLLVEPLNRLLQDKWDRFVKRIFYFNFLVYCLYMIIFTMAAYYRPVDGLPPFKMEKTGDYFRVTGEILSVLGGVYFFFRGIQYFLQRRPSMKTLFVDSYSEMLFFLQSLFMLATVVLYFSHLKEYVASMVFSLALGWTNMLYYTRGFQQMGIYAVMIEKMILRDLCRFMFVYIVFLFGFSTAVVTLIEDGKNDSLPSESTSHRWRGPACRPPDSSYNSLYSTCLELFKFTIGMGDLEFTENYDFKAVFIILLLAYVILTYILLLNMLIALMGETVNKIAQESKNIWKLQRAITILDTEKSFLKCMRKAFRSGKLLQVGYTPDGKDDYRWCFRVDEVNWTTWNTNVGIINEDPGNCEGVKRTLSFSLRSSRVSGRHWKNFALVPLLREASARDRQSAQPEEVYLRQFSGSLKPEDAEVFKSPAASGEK
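Fluo-8 calcium influx in TRPV1-expressing cells, kinetic read (ex 480/em 520 nm). Compound added and read 3 min for agonist activity, followed by capsaicin at EC20 final and 2 min further read for enhancement.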
Sfp PPTase inh = qHTS Assay for Inhibitors of Bacillus subtilis Sfp phosphopantetheinyl transferase (PPTase); Potency, µM, without a hit: max response, negative = inhibition, actives largely listed as inhibitors; AID 1490, 2009; hit rate 3.5% among 310,000; Biochemical Sfp PPTase activity, qHTS; active = well fitted inhibition curve with a large enough effect; inconclusive = small, poorly fitted or top-dose-only effect, or another doubt; inactive = no such curve, though single readings can be large or run the other way;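 note: the enzyme is Sfp with the accession as filed and its product quenches rhodamine fluorescence; potency is the fitted concentration of half-maximal effect; 0% = enzyme reaction without inhibitor and -100% = no enzyme wells; top concentration of the series not given in the record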
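Buffer: 50 mM Hepes-Na pH 7.6, 10 mM MgCl2, 0.01% Nonidet P-40, 0.01% BSA. Enzyme 15 nM, pre-exposed to compound 15 min; substrates then added and fluorescence change tracked over 30 min.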
gsp antag = qHTS for Antagonists of gsp, the Etiologic Mutation Responsible for Fibrous Dysplasia/McCune-Albright Syndrome: qHTS; gsp-mutant cells, cAMP HTRF, 30 min; control for the full effect not named in the record; Potency, µM (doses to about 76.9 µM), without a hit: top-dose activity change, negative = inhibition, most hits filed as inhibitors; hit rate 0.4% among 340,000; active = falling curve of any shape with a large fitted effect; inconclusive = falling curve, mostly with a smaller effect; inactive = flat or rising curve; cell line not stated here;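 note: intracellular cAMP measured with PDE inhibitor Ro 20-1724 present during compound exposure; potency is the fitted concentration of half-maximal effect; % is set by controls: 0 for no effect and ±100 for the full control effect; nearly all actives have a fitted effect of over 65% in size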
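HTRF cAMP read-out (cAMP-d2 plus anti-cAMP antibody-K in lysis buffer, 30 min RT). Before lysis, cells are exposed to compounds with […] for 30 min at 37C in DPBS containing Ca/Mg, BSA and Tween 20.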
ClpP mod = qHTS Assay for Activators of ClpP; ATP-dependent Clp protease proteolytic subunit (Bacillus subtilis (strain 168)), P80244; AID 651965, 2013; hit rate 1.9% among 340,000; purified B. subtilis ClpP, FRET peptide cleavage, 20 min; Potency, µM (highest dose often 57.5 µM), without a hit: top-dose activity change, negative = active; active = well fitted falling curve with a large enough effect; inconclusive = small, poorly fitted or top-dose-only effect; inactive = no such curve, though single readings can be large or run the other way; note: potency is the fitted concentration of half-maximal effect; the source files actives as falling curves though it sought activators and does not explain the sign; nearly all actives have a fitted effect of over 65% in size; many hits overshoot -100%
Target sequence (P80244 whole entry, looked up): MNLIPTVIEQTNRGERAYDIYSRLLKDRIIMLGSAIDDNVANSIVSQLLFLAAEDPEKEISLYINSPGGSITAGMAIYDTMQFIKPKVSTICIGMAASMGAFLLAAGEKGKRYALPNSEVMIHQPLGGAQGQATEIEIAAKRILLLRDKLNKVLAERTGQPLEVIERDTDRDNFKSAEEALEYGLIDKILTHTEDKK
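Buffer: 100 mM Tris/HCl pH8, 100 mM KCl, 0.05% low protease BSA, 2.5% glycerol, 0.01% Tween-20. ClpP 10 microg/mL final; 20 min RT; delta FRET normalized to ADEP and DMSO controls.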
Menin-MLL FL inh = qHTS Assay for Inhibitors Targeting the Menin-MLL Interaction in MLL Related Leukemias: Competition With Fluorescein Labeled MLL-derived Peptide; Fluorescence polarization, fluorescein-MLL peptide displacement from menin; 290,000 tested, under 10 active; FP activity change, % at 61.4 µM; inconclusive = falling polarisation curve, or a change in total fluorescence; inactive = total fluorescence flat and polarisation flat or rising; no compound was filed as active; the % refers to the polarisation; negative = inhibition;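 note: % of control where 0% means no effect; inhibitors lower the polarisation; unlabelled MLL peptide was the positive control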
gsp agonist = qHTS for Agonist of gsp, the Etiologic Mutation Responsible for Fibrous Dysplasia/McCune-Albright Syndrome: qHTS | hit rate 0.13% among 340,000 | AID 624287, 2012 | Potency, µM (doses to about 76.9 µM), without a hit: at the top dose activation (cAMP increase), most hits filed as activators | gsp mutant cells, cAMP HTRF, 30 min; control for the full effect not named in the record; active = well fitted activation curve with a large enough effect; inconclusive = small, poorly fitted or top-dose-only effect, or another doubt; inactive = no such curve, though single readings can be large or run the other way; cell line not stated here;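 note: phosphodiesterase inhibitor Ro 20-1724 added with compounds to block cAMP breakdown; potency is the fitted concentration of half-maximal effect; nearly all actives have a fitted effect of over 60% in size; about a fifth of the inactives were tested at one dose only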
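Cells stably selected in G418 were plated at 2000/well, grown 16-24 hr, then given compounds in DMSO with the PDE inhibitor […] (300 uM solution added) for 30 min at 37C; cAMP was read by HTRF.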
* marks the source's active call; other numbers are inactive results; ? = inconclusive; . = not tested or not shown; [ ] = dose if it differs, or a comment. No enrichment for hits; overall some 5.3% were active at least once.

SMILES	CtBP-E1A inh	TRPV1 potentiator	Sfp PPTase inh	gsp antag	ClpP mod	Menin-MLL FL inh	gsp agonist
S=C(NC1CCCC1)NN1CCOCC1	0.0	-0.9	-20.0%	7.9%	.	-1.0	-5.4%
Cc1nc(-c2cccc(NC(=O)c3ccc(-n4nccc4C)cc3)c2)cs1	2.3	-6.0	.	?	-1.2%	.	-52.6%[inhibitor]
O=C(O)c1cc(-c2ccccc2)nc(-c2ccccc2)c1	4.0	8.6	.	31.6µM*	3.7%	.	-35.8%
COc1ccc(-c2nn(-c3ccccc3)cc2C(=O)NCC(c2cccs2)N2CCOCC2)cc1 (configuration not stated)	12.4	-17.7	.	?	-3.5%	.	-37.3%[inhibitor]
CC(=O)OCC1(C)CN(c2ccccc2)N(C(C)=O)C1=O (configuration not stated)	.	18.0	-37.8%	-0.3%	-0.4%	1.1	-55.1%[inhibitor]
Cc1ccc(C(=O)c2coc3ccc(OCC(=O)O)cc23)cc1	-1.3	-1.1	26.6%	-36.9%	-1.6%	-2.7	-10.3%
CCC(C)NCCOc1ccc(Br)cc1 (configuration not stated)	8.3	-1.4	-6.1%	16.7%	0.2%	-1.6	-3.4%
COc1ccc(C2Nc3ccccc3C(=O)N2c2ccc(F)cc2)cc1CSc1ccccn1 (configuration not stated)	-1.6	2.1	7.8%	-13.4%	8.91µM*	-0.9	-4.9%[15.4 µM]
Cc1ccc(N(CC2CO2)S(=O)(=O)c2ccccc2[N+](=O)[O-])cc1 (configuration not stated)	-18.9	7.8	12.1%	4.9%	.	.	-3.6%[15.4 µM]
CN1CCN(CCCNC(=O)c2ccc(/C=C3\Oc4ccccc4N(Cc4ccc(Cl)cc4)C3=O)cc2)CC1	.	6.6	?	0.7%	4.6%	57.8[activator]	22.2%
COc1ccc(N(Cc2cc3ccc(C)cc3[nH]c2=O)C(=O)C2CCCO2)cc1 (configuration not stated)	4.3	-7.6	2.6%	4.0%	.	1.8	7.6%[15.4 µM]
O=C(CP(=O)(c1ccccc1)c1ccccc1)N1CCCCC1	-3.5	28.4	-5.4%	0.0%	-0.4%	5.1	11.4%
CCCS(=O)(=O)c1c(S(=O)(=O)CCC)c2cnccn2c1C(=O)c1ccc(Cl)cc1	-0.6	-5.0	-7.2%	-7.2%	-1.4%	0.3	-1.3%
O=S(=O)(c1ccc(F)c(F)c1F)N1CCN(C(=S)NC2CC3CCC2C3)CC1 (configuration not stated)	7.5	4.1	26.8%	6.3%	1.6%	-0.5	-3.1%
CC(=O)Nc1ccc(-n2c(C)c(C(C)=O)c(C(C)=O)c2C)cc1	5.0	-6.7	5.0%	3.6%	4.6%	2.0	15.1%
Cc1ccnc(NC(=O)COc2c(C)cc(C)cc2[N+](=O)[O-])c1	9.9	22.1	12.2%	2.8%	-0.9%	1.0	2.6%
COc1cc(/C=N/N=C(\N)c2nonc2N)cc(OC)c1OC	-24.0	-9.8	7.3%	9.6%	.	-1.8	-12.1%
Cc1ccc(NC(=O)CN(C)C(=O)Cn2nnc(-c3ccccc3)n2)cc1	1.5	5.5	.	6.6%	.	.	5.5%[15.4 µM]
CCSc1nc2cc(OC)c(OC)cc2c(=O)n1CCc1ccccc1	3.5	-13.8	-24.4%	-7.9%	-1.5%	-0.4	16.0%
COc1cccc(N(Cc2nnc3n2CCCCC3)C(=O)Nc2ccccc2F)c1	13.0	-0.4	-1.7%	6.8%	-2.3%	-0.9	3.9%[15.4 µM]
Cc1ccc(C(=O)N2CC(C)OC(C)C2)c(Cl)c1 (configuration not stated)	-5.7	10.4	7.3%	12.8%	-2.2%	-0.4	?
Cc1noc(C)c1CSc1nc2sc(C)c(C)c2c(=O)n1-c1ccccc1	-4.6	-10.3	11.9%	10.8%	3.4%	0.3	0.2%
COc1ccc(C(C(=O)NC(C)(C)C)N(C(=O)CNC(=O)c2cccs2)c2ccc(NC(C)=O)cc2)cc1OC (configuration not stated)	6.1	-1.8	4.2%	2.8%	.	-0.1	22.0%[15.4 µM]
O=C(CN1CCOC1=O)N1CCCC(Nc2ccc(F)c(F)c2)C1 (configuration not stated)	3.3	9.1	15.0%	4.2%	0.3%	-0.3	?
C[C@H]1CN([C@@H](C)CO)S(=O)(=O)c2ccc(Br)cc2O[C@H]1CN(C)S(=O)(=O)c1ccccc1	5.7	.	.	.	1.1%	.	-32.8%[inhibitor]
Cc1ccccc1C(=O)N(Cc1nc2ccccc2c(=O)[nH]1)C1CCCC1	1.4	8.8	8.2%	-17.3%	.	-0.2	3.8%
CC(C)(O)CC[C@@H](O)[C@](C)(O)[C@H]1CC[C@@]2(O)C3=CC(=O)[C@@H]4C[C@@H](O)[C@@H](O)C[C@]4(C)C3CC[C@]12C (some centres not stated)	8.1	18.3	8.0%	6.8%	-1.5%	1.2	.
CC(C)c1ccc(OCC(=O)NCCO)cc1	12.6	-5.3	-4.4%	-2.6%	-0.7%	7.6	4.8%
COc1ccccc1N1CCN(Cc2nc3ccccc3c(=O)n2CC(C)=O)CC1	0.4	-3.7	6.4%	-2.2%	-0.1%	0.7	2.8%
CCCOc1ccc(N2C(=O)CC(N(CCc3ccccc3)C(=O)c3ccccc3)C2=O)cc1 (configuration not stated)	-0.2	7.5	2.6%	-9.9%	-3.3%	0.7	62.2%[15.4 µM]
CCc1ccc(S(=O)(=O)/N=C2\C=CC(=O)c3ccccc32)cc1	.	22.8	-27.9%	.	.	9.0	.
O=C(O)Cc1sc(-c2ccccc2)nc1-c1ccccc1	-10.7	.	-4.7%	-21.4%	31.6µM*	-3.4	?
CC12CCC(=O)N1C(C(=O)Nc1ccc(Br)cc1Cl)CS2 (configuration not stated)	8.7	-4.9	10.9%	9.5%	1.0%	-2.5	?
COc1cc(CNc2ncn[nH]2)ccc1OCc1cccc(C)c1	.	-18.7	-1.4%	-8.0%	-0.4%	2.8	-22.3%
COc1ccc(-n2cnnc2SCC(=O)c2ccc(S(=O)(=O)N3CCOCC3)cc2)cc1	-2.9	-4.8	56.2µM*	-0.5%	-5.5%	5.5	2.5%
CC(NC(=O)CCC(=O)N1CCCCCC1)c1ccccc1 (configuration not stated)	1.5	-2.8	2.5%	9.0%	.	-0.5	-16.9%
COc1ccc(CCN2C(=O)CC(Cc3ccc(Br)cc3)C2=O)cc1OC (configuration not stated)	0.3	-11.5	-6.6%	-6.6%	-7.8%	3.2	-25.5%
O=C(NCc1ccccc1Cl)C1CCN(S(=O)(=O)N2CCCCC2)CC1	1.1	-9.6	5.0%	-10.3%	1.9%	0.0	-2.0%
O=C1C=C(N2CCN(C3=CC(=O)CCC3)CC2)CCC1	7.3	-1.2	-20.1%	-2.6%	2.1%	-1.0	20.3%
CCOc1ccccc1C(=O)NC(C(=O)NCc1ccccc1OC)C(C)C (configuration not stated)	.	-14.3	3.0%	-3.8%	0.5%	-1.7	21.9%
COc1ccccc1OC1=NS(=O)(=O)c2ccccc21	4.1	7.6	12.2%	8.8%	-5.7%	-2.6	-24.2%
COc1ccc(NC(=O)CCc2nnc3ccc(NCc4ccco4)nn23)cc1	-2.4	13.5	-4.9%	-0.2%	-0.5%	.	?
NS(=O)(=O)c1ccc(N=Nc2ccc(=O)[nH]c2O)cc1	0.9	1.8	?	-16.6%	-4.1%	-4.1	14.6%[15.4 µM]
Cc1ccc(OCCC(=O)OCC(=O)Nc2ccc(N3CCOCC3)cc2)cc1	0.7	-4.5	.	7.3%	.	.	-8.9%[15.4 µM]
CCN(CC(=O)NC1CCS(=O)(=O)C1)S(=O)(=O)c1ccc(F)cc1 (configuration not stated)	6.9	-5.7	6.8%	-6.2%	-2.2%	0.9	5.5%
COc1ccc(CNC(=O)Cn2cnc3c(=O)n(C)c(=O)n(C)c32)cc1	-4.6	13.2	8.1%	6.0%	-0.9%	-0.9	17.8µM*
O=C(Oc1cccc(Oc2ccccc2)c1)N1CCOCC1	12.9	5.4	0.0%	2.2%	-0.4%	3.2	-60.3%
O=C(NC(=S)Nc1cc(C(F)(F)F)ccc1Cl)c1ccccc1	0.2	-4.5	-27.4%	9.4%	-1.3%	1.8	9.5%
Clc1ccc(-c2nc3ccccc3nc2-c2ccccc2)cc1	13.9	12.0	-13.7%	-19.1%	-0.8%	.	25.6%[15.4 µM]
CCCCCCCCN1N=N[C@H]2[C@H]1[C@@H]1C[C@H]2N(C(=O)OC(C)(C)C)O1	6.5	.	.	2.4%	1.5%	.	.
O=C(/C=C/c1ccccc1)N/C(=C/c1ccccc1)C(=O)NCCO	-4.5	6.5	15.2%	8.6%	-0.9%	-0.7	?
Cc1cc(N2CCOCC2)nc2ccc(NC(=S)NCc3ccc4c(c3)OCO4)cc12	-10.3	1.0	7.6%	-24.1%	3.6%	-3.1	-29.7%
Cc1ccc(CN2C(=O)C(C)Nc3ncnc(N4CCN(c5ccccn5)CC4)c32)cc1 (configuration not stated)	-2.6	-14.9	.	4.7%	-20.8%	.	.
Cc1cc(C)c(NC(=O)C2CCCN2CCOC(=O)c2ccccc2)c(C)c1 (configuration not stated)	-0.1	-17.3	?	-10.4%	0.3%	7.9	?
C=CCC[C@H](Cc1ccc(F)cc1)C(=O)OC[C@H]1CCCN1C(=O)[C@@H](CC=C)CC(=O)NCCO	0.0	.	.	5.2%	2.5%	.	.
CCCCCC(=O)NNC1=NCC(Cc2cccc(Cl)c2)S1 (configuration not stated)	3.4	25.3	24.1%	-2.8%	-1.2%	-0.1	15.7%[15.4 µM]
COc1cc(NC(=O)COC(=O)CO/N=C(\C)c2ccc3c(c2)OCO3)cc(OC)c1	.	?	.	-3.8%	-1.7%	.	?
O=C(CN1C(=O)NC2(CCCCC2)C1=O)Nc1cccc(Cl)c1Cl	.	-5.7	.	13.0%	0.7%	.	-1.3%
C(/CCc1ccccc1)=N\Nc1nc2ccccc2[nH]1	.	3.4	9.0%	8.8%	1.0%	-1.9	-14.2%
